Menin MLL FP FL: qHTS Assay for Inhibitors Targeting the Menin-MLL Interaction in MLL Related Leukemias: Competition With Fluorescein Labeled MLL-derived Peptide. Fluorescence polarization, fluorescein-MLL peptide displacement from menin. FP activity change, % at 61.4 µM. 290,000 tested, under 10 active. AID 1766, 2009; inconclusive = falling polarisation curve, or a change in total fluorescence; inactive = total fluorescence flat and polarisation flat or rising; no compound was filed as active; the % refers to the polarisation; negative = inhibition;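 note: % of control where 0% means no effect; inhibitors lower the polarisation; unlabelled MLL peptide was the positive control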
gsp ag: qHTS for Agonist of gsp, the Etiologic Mutation Responsible for Fibrous Dysplasia/McCune-Albright Syndrome: qHTS; gsp mutant cells, cAMP HTRF, 30 min; control for the full effect not named in the record; 340,000 tested, 0.13% active; AID 624287, 2012; Potency, µM (top dose mostly 76.9 µM), for inactives: at the highest dose activation (cAMP increase), most hits filed as activators; active = well fitted activation curve with a large enough effect; inconclusive = small, poorly fitted or top-dose-only effect, or another doubt; inactive = no such curve, though single readings can be large or run the other way; cell line not stated here;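 note: phosphodiesterase inhibitor Ro 20-1724 added with compounds to block cAMP breakdown; potency is the fitted concentration of half-maximal effect; nearly all actives have a fitted effect of over 60% in size; about a fifth of the inactives were tested at one dose only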
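Cells stably selected in G418 were plated at 2000/well, grown 16-24 hr, then given compounds in DMSO with the PDE inhibitor […] (300 uM solution added) for 30 min at 37C; cAMP was read by HTRF.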
gsp antagonist: qHTS for Antagonists of gsp, the Etiologic Mutation Responsible for Fibrous Dysplasia/McCune-Albright Syndrome: qHTS | gsp-mutant cells, cAMP HTRF, 30 min; control for the full effect not named in the record | Potency, µM (series often up to 76.9 µM), for the others: at the highest dose activity change, negative = inhibition, most hits filed as inhibitors | 340,000 tested, 0.4% active; active = falling curve of any shape with a large fitted effect; inconclusive = falling curve, mostly with a smaller effect; inactive = flat or rising curve; cell line not stated here;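 note: intracellular cAMP measured with PDE inhibitor Ro 20-1724 present during compound exposure; potency is the fitted concentration of half-maximal effect; % is set by controls: 0 for no effect and ±100 for the full control effect; nearly all actives have a fitted effect of over 65% in size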
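HTRF cAMP measurement after 30 min RT detection following 30 min, 37C compound treatment alongside […] (added as 300 uM solution) in G418-selected cells seeded at 2000/well and grown 16–24 h.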
TRPML1 inh: qHTS for Inhibitors of the Human Mucolipin Transient Receptor Potential 1 (TRPML1); Mucolipin-1 (Homo sapiens), Q9GZU1; TRPML1-inducible cells, Ca2+ dye fluorescence, FDSS; active compounds read low; inhibition of EC80 agonist-evoked calcium signal; activity change, negative = inhibition, % (no concentration beside the values); 390,000 tested, 0.02% active; in the data active means activity change below about -50%; inconclusive means about -30% to -50%; inactive means above about -30%;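 note: stimulus is agonist 54-4 at its EC80 concentration; % is set by controls: 0 for no effect and ±100 for the full control effect; compound concentration not given in the record; the text of the record puts the active cut at -80%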
Target sequence (Q9GZU1 whole entry, looked up): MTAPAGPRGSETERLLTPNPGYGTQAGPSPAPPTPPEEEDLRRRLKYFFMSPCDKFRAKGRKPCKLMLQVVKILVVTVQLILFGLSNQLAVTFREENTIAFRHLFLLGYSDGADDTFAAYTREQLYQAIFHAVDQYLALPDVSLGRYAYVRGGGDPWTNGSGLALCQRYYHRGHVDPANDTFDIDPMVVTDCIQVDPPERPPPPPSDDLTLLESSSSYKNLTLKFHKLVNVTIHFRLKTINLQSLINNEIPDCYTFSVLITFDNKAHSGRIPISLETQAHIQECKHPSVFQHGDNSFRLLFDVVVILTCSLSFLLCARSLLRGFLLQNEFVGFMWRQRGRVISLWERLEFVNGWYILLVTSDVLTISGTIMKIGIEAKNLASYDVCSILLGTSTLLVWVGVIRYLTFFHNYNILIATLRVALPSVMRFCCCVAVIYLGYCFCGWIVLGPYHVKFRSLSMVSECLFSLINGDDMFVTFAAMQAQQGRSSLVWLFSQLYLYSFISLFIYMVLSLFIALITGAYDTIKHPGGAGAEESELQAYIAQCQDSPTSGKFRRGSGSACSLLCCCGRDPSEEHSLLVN
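TRPML1-DL cells, Tet-induced overnight (~16 h, 37 °C) at 1,500 cells/well, were loaded with Ca8 no-wash dye plus quencher for 45-90 min at room temperature. Compounds were pinned during FDSS kinetic reading; agonist 54-4 at EC80 (4 uM final) then added.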
ClpP mod: qHTS Assay for Activators of ClpP; ATP-dependent Clp protease proteolytic subunit (Bacillus subtilis (strain 168)), P80244; purified B. subtilis ClpP, FRET peptide cleavage, 20 min; Potency, µM (top dose mostly 57.5 µM), for inactives: at the highest dose activity change, negative = active; 340,000 tested, 1.9% active; AID 651965, 2013; active = well fitted falling curve with a large enough effect; inconclusive = small, poorly fitted or top-dose-only effect; inactive = no such curve, though single readings can be large or run the other way; note: potency is the fitted concentration of half-maximal effect; the source files actives as falling curves though it sought activators and does not explain the sign; nearly all actives have a fitted effect of over 65% in size; many hits overshoot -100%
Target sequence (P80244 whole entry, looked up): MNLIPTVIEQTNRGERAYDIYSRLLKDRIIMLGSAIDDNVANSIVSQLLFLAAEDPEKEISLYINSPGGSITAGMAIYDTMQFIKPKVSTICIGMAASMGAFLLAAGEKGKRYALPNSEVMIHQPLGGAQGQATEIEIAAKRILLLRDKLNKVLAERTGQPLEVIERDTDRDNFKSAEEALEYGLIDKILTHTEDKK
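Purified B. subtilis ClpP, 10 microg/mL final in Tris/HCl pH8 with KCl, BSA, glycerol and Tween-20, cleaved an Abz/nitrotyrosine-quenched decapeptide. Fluorescence (ex 320, em 430) was read at 0 and 20 min at room temperature. Delta was normalized to 5.8 microM ADEP and DMSO/no-enzyme controls.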
TRPML1 ag: qHTS for Agonists of the Human Mucolipin Transient Receptor Potential 1 (TRPML1) | Mucolipin-1 (Homo sapiens), Q9GZU1 | TRPML1-expressing cells, Ca2+ dye fluorescence, FDSS; host cell line not named in the record; reference of the full effect not given here | activation, % (test concentration not listed) | 410,000 tested, 0.12% active | AID 624414, 2012; in the data active = activation above about 50%; inconclusive = about 30% to 50%; inactive = below about 30%; note: 0% is about no effect; the text of the record puts the active cut at 80%
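Agonist activity was taken from a 110 s kinetic Ca2+ dye read on the FDSS after pinning compounds onto TRPML1-DL cells. The cells were seeded at 1,500/well with Tet inducer, incubated about 16 h, then dye-loaded at room temperature.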
The depositor's hits bear a star; ? = inconclusive; . = no result given; & = joins results of further samples; [ ] = another dose, or the depositor's remark.

Structure	Menin MLL FP FL	TRPML1 inh	gsp antagonist	ClpP mod	gsp ag	TRPML1 ag
Cc1cccc(NC2=C(NCCO)C(=O)c3ccccc3C2=O)c1	-6.4	5.7	-5.2%	6.0%	-128.2%[inhibitor]	2.2
O=C(C1CCN(S(=O)(=O)c2ccc(Cl)c(C(F)(F)F)c2)CC1)N1CCC1	.	-1.5	4.3%	1.9%	14.0%	1.5
COc1ccc(/C=N/NC(=O)c2nc(Cl)c(Cl)c(N)c2Cl)cc1COc1ccccc1F	0.8	3.8	-13.7%	206.1%	?	0.9
COc1ccc(CN2CCOCC2)cc1	5.0	3.4	4.1%	0.9%	?	-0.2
CCc1ccc([C@@H]2C[C@H]3CN(Cc4ccccc4OC)C(=O)[C@]34CCCN24)cc1	8.9	1.1	-7.1%	.	-4.1%	-0.2
CCC(C)n1c(SC(C)C#N)nc2ccccc2c1=O (configuration not stated)	0.4	11.0	-14.8%	0.2%&2.9%	13.2%	0.9&-0.5
CC1Sc2ccc(C(=O)NCc3ccccc3Cl)cc2NC1=O (configuration not stated)	.	-1.6	-6.1%	-2.2%	10.7%	0.0
Cc1c(C(=O)C(=O)NCc2ccco2)c2ccccc2n1C	3.0	3.1	15.0%	.	4.4%[15.4 µM]	-0.2
O=C(O)c1ccc(CSc2nnnn2-c2ccc(F)cc2)cc1	4.6	19.3	-20.2%	.	20.1%	1.6
COCCN(CC(=O)Nc1ccccc1C(F)(F)F)C(=O)/C=C/c1ccc2ccccc2n1	.	2.4	0.6%	1.3%	9.9%	-0.5
CCOC(=O)c1cc(-c2ccc(C)cc2)n(CC(=O)Nc2ccccc2F)c1C	.	-17.7	.	2.3%	.	-1.0
CCCCn1c(N)c(N(CC)C(=O)Cc2ccc(S(=O)(=O)N3CCOCC3)s2)c(=O)[nH]c1=O	.	45.8	0.1%	1.4%	5.0%	-0.1
O=C(Nc1ccc2c(c1)OCO2)c1cnc2n(c1=O)CCS2	-1.7	-11.0	8.1%	0.9%	?	0.3
CCOC(=O)CSc1nc2ccc(N3CCOCC3)cc2c(=O)n1Cc1ccccc1	-1.6	6.3	-11.8%	-11.8%	9.3%	0.6
Cc1ccc(S(=O)(=O)N2CC3CCCN3c3ccc(C(F)(F)F)cc32)cc1 (configuration not stated)	5.8	-5.0	?	-3.2%	-7.7%	?
CCN(CC)C(=O)c1cc2cc([N+](=O)[O-])ccc2s1	-0.3	6.3	-3.0%	1.4%	-38.1%[inhibitor]	-0.2
COc1ccc(S(=O)(=O)Cc2ccc(C(=O)N3CCN(c4ccccc4F)CC3)o2)cc1	2.0	-16.5	13.4%	0.9%	?	0.0
Cc1cc(NC(=O)c2cc(-c3ccccc3C)nc3ccccc23)no1	3.1	-5.2	19.7%	-2.0%	-2.2%	0.8
CN1/C(=C\C(=O)COC(=O)c2ccc(O)c(O)c2)C(C)(C)c2ccccc21	-0.7	-8.1	-27.3%	.	10.1%	3.4
N#Cc1cn(-c2cccc(C(F)(F)F)c2)c(=O)[nH]c1=O	-4.2	28.0	-4.4%	.	13.0%	1.5
O=C(Nc1ccc2c(c1)CCC2)c1cc(F)cc(F)c1	.	-11.4	0.5%	-4.1%	-8.7%	1.1
CC(CCCC(C)(C)O)NC(=O)c1ccc2oc(CCc3ccccc3)nc2c1 (configuration not stated)	-0.9	.	-14.9%	1.3%	9.9%	.
COC(=O)c1ccccc1S(=O)(=O)N1CCC(C(=O)OCC(=O)NC2CCCCC2C)CC1 (configuration not stated)	.	-2.3	-4.5%	-1.4%	?	0.2
O=C(ONC1=NCCCCC1)c1cccc([N+](=O)[O-])c1	0.7	-1.7	12.3%	.	-0.8%[15.4 µM]	1.8
CCOC(=O)N1CCN(C(=O)CS(=O)Cc2nc(-c3ccc(C)cc3)oc2C)CC1 (configuration not stated)	2.4	7.8	-2.5%	-18.4%	-0.5%	-0.2
COc1cccc(-c2c(C(=O)N/N=C/c3cccnc3)nnn2-c2nonc2N)c1	-3.4	5.4	-10.0%	0.2%	-35.7%[inhibitor]	-0.3
Cc1cc(CNC(=O)c2cccc([N+](=O)[O-])c2)c2ccccc2n1	4.9	-19.2	2.9%	.	0.2%	-0.2
CCCNC(=O)C(=O)Nc1ccc(N(C)C)cc1	2.5	24.6	-10.7%	-5.9%	-62.9%[inhibitor]	-0.6
O=C(CSc1nc2ccccc2nc1Cc1ccccc1)N1CCCCC1	.	49.3	.	-3.7%	.	3.8
COc1ccc(C(=O)N2CCCC2)cc1S(=O)(=O)N1CCC(C)CC1	2.4	12.4	13.6%	-0.2%	-0.4%	-0.7
COc1ccccc1-n1c(C)cc(C=O)c1C	2.8	-1.9	-0.5%	1.3%	-40.0%[inhibitor]	-0.7
CC(=Nc1ccc(C)c(C)c1)C1=C(O)CSC1=O	?	-2.2	0.2%	1.7%	1.0%	-1.2
O=C(Nc1ncc(Cc2cc(Cl)ccc2Cl)s1)c1ccc([N+](=O)[O-])cc1	1.6	-5.0	10.6%	-1.7%	26.0%	2.0
COC(=O)C1=C(C)NC(=S)NC1/C=C/c1ccccc1 (configuration not stated)	-6.3	29.5	6.9%	2.6%	-70.1%[inhibitor]	1.3
N#Cc1ccc(Cl)cc1NC(=O)COC(=O)c1cccc(S(=O)(=O)N2CCOCC2)c1	.	8.1	0.7%	0.9%	2.7%	3.0
C#CC1(NC(=O)NC(C)(C)C)CCCCC1	-0.4	11.1	10.3%	-0.1%	-0.4%	-0.4
COc1ccc(N(CC(=O)Nc2ccc(C)cn2)S(=O)(=O)c2c(C)noc2C)cc1	5.0	-2.7	?	-5.0%	13.4%	-0.3
COc1ccc(C)cc1Nc1n[n+](-c2ccccc2)c(-c2ccc(N(C)C)cc2)s1	?	-1.5	-29.3%	10.0%	.	-0.1
Cc1cc2c3c(c1)C(C)CC(C)(C)N3C(=O)C2=C(C#N)C#N (configuration not stated)	7.1	6.2	19.4%	.	-11.1%[15.4 µM]	2.5
COc1ccccc1S(=O)Cc1ccc(C(=O)NCc2ccccc2Cl)o1 (configuration not stated)	-4.1	-6.6	-9.6%	-1.2%	-6.6%	0.3

Reprinted at random: 2 records from the list
Structure	Menin MLL FP FL	TRPML1 inh	gsp antagonist	ClpP mod	gsp ag	TRPML1 ag
O=C(Nc1ncc(Cc2cc(Cl)ccc2Cl)s1)c1ccc([N+](=O)[O-])cc1	1.6	-5.0	10.6%	-1.7%	26.0%	2.0
N#Cc1ccc(Cl)cc1NC(=O)COC(=O)c1cccc(S(=O)(=O)N2CCOCC2)c1	.	8.1	0.7%	0.9%	2.7%	3.0

Later entries:
Structure	Menin MLL FP FL	TRPML1 inh	gsp antagonist	ClpP mod	gsp ag	TRPML1 ag
Cc1ccc(-n2ncc(C(=O)NCc3ccccc3C)c2-n2cccc2)cc1	.	-4.5	.	-1.6%	.	-0.1
COc1ccc(Cl)cc1NC(=O)CCCC(=O)c1ccccc1	-5.5	31.6	-16.5%	1.8%	-4.8%	1.1
CCOc1ccccc1C(=O)N1CCc2cc(OC)c(OC)cc2C1COc1ccc(OC)cc1 (configuration not stated)	.	5.6	.	0.8%	.	2.5
CCOC(=O)N=S(N)(=O)c1ccccc1 (configuration not stated)	3.7	15.5	4.7%	0.3%	3.3%	0.0
Cc1ccsc1CN(C(=O)c1ccccc1)C1CCS(=O)(=O)C1 (configuration not stated)	.	7.0	2.3%	1.5%	-47.6%[inhibitor]	-0.1
CCOc1ccc(NC(=O)c2c(NCc3cccnc3)sc3c2CCC(C)C3)cc1 (configuration not stated)	.	0.5	.	-1.1%	.	-0.4
O=C(Cc1ccc(NC(=O)C2CCN(C(=O)CCc3ccccc3)CC2)cc1)Nc1ccc(C(=O)N2CCOCC2)cc1	.	-8.7	4.0%	1.5%	.	-1.0
O=C(CCCN1C(=O)c2ccccc2C1=O)OC1CSCC1NC(=O)c1ccccc1 (configuration not stated)	3.9	42.8	-12.2%	-1.9%	-9.0%	-0.1
CC(C)C(=O)Nc1cccc(C(=O)Nc2nnc(C(F)(F)F)s2)c1	.	-14.3	.	-2.5%	.	1.6
Cc1c(NC(=O)Nc2cc(F)c(F)cc2Cl)c(=O)n(-c2ccccc2)n1C	.	9.1	-6.8%	-2.6%	21.2%	0.0
CCOC(=O)N1CCN(C(=O)CSc2ccccc2)CC1	-0.4	20.8	9.1%	0.9%	-7.3%	-0.2
O=C(O)Cn1cccc1C(=O)c1ccccc1	?	-6.2	14.3%	2.6%	0.0%	-0.1
CCc1cc(C(=O)NCC2CCCO2)sc1C (configuration not stated)	.	3.0	6.2%	-0.2%	2.7%	-0.6
CC(C)NS(=O)(=O)c1ccc(NC(=O)C2CC3C=CC2C3)cc1 (configuration not stated)	0.5	9.1	11.0%	-0.4%	-10.0%	1.0
Cc1nc2nc(C)c(NS(=O)(=O)c3ccc(C(C)(C)C)cc3)c(=O)n2[nH]1	-2.2	16.9	-5.7%	.	-1.2%	0.5
CCOC(=O)c1cnc(SC2CC(=O)N(c3ccc(C)cc3)C2=O)nc1N (configuration not stated)	-0.2	0.2	-5.8%	-0.9%	-0.4%	-0.4
COc1ccccc1CNC(=O)c1c(N)n(CCCN2CCOCC2)c2nc3ccccc3nc12	9.1	9.8	12.8%	?	14.9%	-0.5
COc1ccc(C(=O)NCCS(=O)(=O)NCc2ccccc2OC)cc1	.	-1.8	-8.2%	.	-12.6%[15.4 µM]	0.2
COc1ccccc1N(CC(=O)NCCSCc1cccc(C)c1)S(=O)(=O)c1ccccc1	.	40.5	?	-0.5%	-50.3%[inhibitor]	8.7
O=C(NC(Cc1ccccc1)C(=O)O)/C(=C/c1ccco1)NC(=O)c1cccc(Br)c1 (configuration not stated)	?	0.9	5.3%	-1.1%	-21.6%	-1.0
Cc1cc(C)nc(SCC(=O)NN=Cc2ccc(C)o2)n1	.	9.2	-5.6%	.	6.6%	0.2
COc1ccc(C(=O)CC(Nc2ccc([N+](=O)[O-])cc2)c2ccc(OC)cc2)cc1 (configuration not stated)	-1.2	10.4	1.8%	0.0%	-23.8%	1.0
COc1ccc(S(=O)(=O)NCc2ccccc2)cc1	3.3	-3.4	0.2%	3.2%	-48.1%[inhibitor]	1.1

Source: PubChem BioAssay
